Screens as filed in PubChem BioAssay.
Lassa entry inh – Lassa virus entry inhibition; Lassa virus pseudotype entry inhibition, cell reporter; control for the full effect not named in the record; Potency, µM (top dose mostly 37.9 µM), for the others: at the highest dose activity change, negative = inhibition, actives largely listed as inhibitors; 300,000 compounds, 1.2% hits; active means well fitted inhibition curve with a large enough effect; inconclusive means small, poorly fitted or top-dose-only effect, or effect the other way; inactive means flat fitted curve, though single readings scatter; tested in HEK293 cells; also: % is scaled to controls: 0 for no effect and ±100 for the full control effect; nearly all actives have a fitted effect of over 50% in size; luciferase read-out
SARS PLP yeast – blocks SARS-CoV papain-like protease in a yeast assay; AID 485353; Potency, µM (series often up to 32.9 µM), for the others: top-dose activity, positive = growth rescue; 330,000 compounds, 0.19% hits; S. cerevisiae expressing SARS-CoV PLpro, growth rescue; control for the full effect not named in the record; active means well fitted rising curve with a large enough effect; inconclusive means small, poorly fitted or top-dose-only effect; inactive means no such curve, though single readings can be large or run the other way; also: 0% is about no effect; nearly all actives have a fitted effect of over 55% in size; growth read by luminescence after 48 h
RE007 growth inh – less growth of the S. pombe RE007 Vpr strain | S. pombe RE007 Vpr strain, BacTiter-Glo ATP luminescence, 24 h; control for the full effect not named in the record | Potency, µM (doses to about 92.2 µM), inactives show at the top dose activity change, negative = less growth | 360,000 compounds, 0.21% hits; active = well fitted falling curve with a large enough effect; inconclusive = small, poorly fitted or top-dose-only effect; inactive = no such curve, though single readings can be large or run the other way;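 also: % is scaled to controls: 0 for no effect and ±100 for the full control effect; nearly all actives have a fitted effect of over 50% in size; the assay follows cell death caused by Vpr and the record does not say whether a fall means rescue or toxicity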
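Fission yeast strain RE007, carrying one chromosomally integrated HIV-1 vpr copy, was seeded at OD 0.01 in PMG+AL medium with 23 nL pinned compound. After 24 h at 30 °C and 99% humidity, viability was read by BacTiter-Glo luminescence.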
Marburg entry inh – Marburg virus entry inhibition | Marburg virus pseudotyped entry inhibition, cell reporter; control for the full effect not named in the record; about a third of the inactives were read at about 46 µM | Potency, µM (highest dose often 37.8 µM), without a hit: at the top dose activity change, negative = inhibition, hits mostly inhibitors | 300,000 compounds, 1.8% hits | AID 540276; active = well fitted inhibition curve with a large enough effect; inconclusive = small, poorly fitted or top-dose-only effect, or effect the other way; inactive = flat fitted curve, though single readings scatter; tested in HEK293 cells; about a fifth of its hits are not listed in these tables; also: % is scaled to controls: 0 for no effect and ±100 for the full control effect; luciferase read-out
StopGo reporter – FMDV 2A StopGo reporter, luciferase signal. Potency, µM (top dose mostly 57.9 µM), for the others: at the top dose signal change, negative = less light. human cells with a luciferase reporter of 2A StopGo recoding; control for the full effect not named in the record. AID 1159524. 410,000 compounds, 1.2% hits; active = well fitted falling curve with a large enough effect; inconclusive = small, poorly fitted or top-dose-only effect; inactive = no such curve, though single readings can be large or run the other way; tested in HEK293T cells; also: % is scaled to controls: 0 for no effect and ±100 for the full control effect; nearly all actives have a fitted effect of over 45% in size; luciferase light after 4 h
Numbers without * were called inactive; ? = inconclusive; nt = no result given; [ ] = dose if it differs, or a comment. Potency is read from the fitted curve at half-maximal effect.

molecule	Lassa entry inh	SARS PLP yeast	RE007 growth inh	Marburg entry inh	StopGo reporter
O=C(CC1NCCNC1=O)Nc1ccc(F)c(Cl)c1 (stereo not given)	0%[46.1 µM]	nt	nt	0%[46.1 µM]	-14%
CCn1c(=NC(=O)c2ccc(S(=O)(=O)N3CCCCC3)cc2)sc2cccc(OC)c21	14%[46.1 µM]	nt	nt	0%[46.1 µM]	-21%
CC(=O)c1c(C)nc2nc(-c3ccccc3)nn2c1C	28%[46.1 µM]	nt	nt	?	72%[activator]
CCOC(=O)c1c(NC(=O)C(C)Sc2cn(CCNC(=O)c3ccc(OCC)cc3)c3ccccc23)sc2c1CCC2 (stereo not given)	-1%[46.1 µM]	nt	nt	-4%[46.1 µM]	-20%
CC(C)c1ccc(NC(=O)CC2NCCNC2=O)cc1 (stereo not given)	3%[46.1 µM]	nt	nt	19%[46.1 µM]	26%
Cc1cc(NC(=O)c2ccc(-c3ccc(Cl)cc3)o2)cc(-c2nc3ncccc3o2)c1O	40%[46.1 µM]	nt	nt	5%[46.1 µM]	-22%
O=C(CC1NCCNC1=O)Nc1cccc(F)c1 (stereo not given)	16%[46.1 µM]	nt	nt	?	-8%
COc1ccc(C(=O)NCCn2cc(SCc3c(F)cccc3Cl)c3ccccc32)cc1	-27%[46.1 µM]	nt	nt	-22%[46.1 µM]	?
CCc1nn2c(-c3ccco3)ccnc2c1-c1ccccc1	-3%[46.1 µM]	nt	nt	?	29%
COc1ccc(-c2c(C)nn3c4c(cnc23)C(=O)CC(c2ccccc2)C4)cc1 (stereo not given)	1%[46.1 µM]	nt	nt	-2%[46.1 µM]	-11%
COC(=O)CC1Oc2ccccc2-n2cc(-c3ccc(C)cc3)nc21 (stereo not given)	?	nt	nt	?	1%
COc1ccc(C)cc1NC(=O)c1cn(C)c(=O)c2cc(OC)c(OC)cc12	-3%[46.1 µM]	nt	nt	2%[46.1 µM]	-12%
Cc1ccc(-c2cc(C(F)(F)F)n3nc(C(=O)Nc4ccc(Cl)cc4Cl)cc3n2)cc1	-16%[46.1 µM]	nt	nt	?	-5%
O=C(NCCn1cc(SCc2ccc(C(F)(F)F)cc2)c2ccccc21)c1ccccc1F	-2%[46.1 µM]	nt	nt	-23%[46.1 µM]	?
O=c1c(-c2cc(-c3ccc(F)cc3)nc3c2COc2ccc(Cl)cc2-3)coc2ccc(F)cc12	-10%[46.1 µM]	nt	nt	-6%[46.1 µM]	-12%
CCOC(=O)COc1ccc(CC)cc1C(=O)c1ccn2nc(-c3ccccc3)cc2n1	13%[46.1 µM]	nt	nt	?	-22%
O=c1c2c(-c3ccc(Cl)cc3)ccnc2[nH]n1-c1ccccc1	11%[46.1 µM]	nt	nt	19%[46.1 µM]	2%
O=C(c1cnc2c(c1)COc1ccccc1-2)c1ccccc1O	?	nt	nt	14%[46.1 µM]	22%
O=C(CSc1cn(CCNC(=O)c2cccc(C(F)(F)F)c2)c2ccccc12)Nc1ccc2c(c1)OCCO2	?	nt	nt	?	25µM*
COc1c(C)cccc1C(=O)Nc1cccc2ccc(C)nc12	?	nt	nt	4%[46.1 µM]	-16%
CCOC(=O)c1nnc2c(-c3ccc(Cl)cc3)c(C)nn2c1C	5%[46.1 µM]	nt	nt	-16%[46.1 µM]	-5%
CCOC(=O)c1c(NC(=O)CSc2cn(CCNC(=O)c3c(F)cccc3F)c3ccccc23)sc2c1CCC2	-20%[46.1 µM]	nt	nt	?	-16%
COc1ccccc1-c1ccnc2[nH]n(-c3ccccc3)c(=O)c12	-10%[46.1 µM]	nt	nt	11%[46.1 µM]	-1%
Cc1cc(Br)ccc1NC(=O)c1coc(=O)c2ccccc12	-4%[46.1 µM]	nt	nt	15%[46.1 µM]	-22%

Among those listed so far, 3 have four or more nitrogen atoms.
molecule	Lassa entry inh	SARS PLP yeast	RE007 growth inh	Marburg entry inh	StopGo reporter
CC(=O)c1c(C)nc2nc(-c3ccccc3)nn2c1C	28%[46.1 µM]	nt	nt	?	72%[activator]
Cc1ccc(-c2cc(C(F)(F)F)n3nc(C(=O)Nc4ccc(Cl)cc4Cl)cc3n2)cc1	-16%[46.1 µM]	nt	nt	?	-5%
CCOC(=O)c1nnc2c(-c3ccc(Cl)cc3)c(C)nn2c1C	5%[46.1 µM]	nt	nt	-16%[46.1 µM]	-5%

Next section
molecule	Lassa entry inh	SARS PLP yeast	RE007 growth inh	Marburg entry inh	StopGo reporter
Cc1cc(NC(=O)C(C)(C)Oc2ccc(Cl)cc2)cc(-c2nc3ncccc3o2)c1O	10%[46.1 µM]	nt	nt	3%[46.1 µM]	-10%
CCOC(=O)c1cnc2ccc(OCC)cc2c1NCCc1ccc(OC)c(OC)c1	?	nt	nt	?	28µM*
Cc1nn2c(-c3ccco3)ccnc2c1-c1ccc(Cl)cc1	-8%[46.1 µM]	nt	nt	13%[46.1 µM]	49%[activator]
O=C(Nc1ccc(Cl)cc1)c1cc2nc(-c3ccc4c(c3)OCO4)cc(C(F)(F)F)n2n1	-5%[46.1 µM]	nt	nt	3%[46.1 µM]	-20%
CCOc1ccc(C(=O)NCCn2cc(SCC(=O)Nc3ccccc3)c3ccccc32)cc1	?	nt	nt	-23%[46.1 µM]	?
Cc1nn2c3c(cnc2c1-c1ccc(F)cc1)C(=O)CC(c1ccccc1)C3 (stereo not given)	0%[46.1 µM]	nt	nt	-5%[46.1 µM]	?
COc1ccc(-c2cc(-c3ccc(F)cc3)nc3c2COc2ccc(F)cc2-3)cc1	-2%[46.1 µM]	nt	nt	?	1%
Cc1ccc(-c2cc(C(F)(F)F)n3nc(C(=O)Nc4sc5c(c4C#N)CCC(C)C5)cc3n2)cc1 (stereo not given)	?	nt	nt	11%[46.1 µM]	-28%
O=C(NC1(C(F)(F)F)N=C(c2ccccc2)N(C2CCCCC2)C1=O)c1ccccc1F (stereo not given)	5%[46.1 µM]	nt	nt	-21%[46.1 µM]	-26%
CCC(=O)N1N=C(c2ccc(OC)cc2)CC1c1cn(-c2ccccc2)nc1-c1cccs1 (stereo not given)	-7%[46.1 µM]	nt	nt	-6%[46.1 µM]	-12%
Cc1ccc2c(c1)-c1c(cnc3cc(-c4ccccc4)nn13)CO2	?	nt	nt	-27%[46.1 µM]	26%
O=C(CNS(=O)(=O)c1ccc(Cl)cc1)NC1CCCCC1	nt	0%	-10%	nt	-16%
Cc1ccc(C)c(OCC(=O)NNC(=O)c2ccc(=O)[nH]c2)c1	nt	-8%	3%	nt	-13%
NC(=O)c1ccc(NC(=O)CN2CCN(c3ccc(Cl)cc3)CC2)cc1	nt	0%	-3%	nt	-3%
COc1ccc(NC(=O)c2ccc(S(=O)(=O)N3CC(C)CC(C)C3)cc2)cc1S(N)(=O)=O (stereo not given)	nt	0%	2%	nt	-7%
COc1ccc(-c2noc(CCCC(=O)N3CCN(c4cc(C)ccc4C)CC3)n2)cc1	nt	-7%	-4%	nt	14%
COC(=O)c1ccc(CNC(=O)c2ccc(S(=O)(=O)N(C)c3ccccc3OC)cc2)cc1	nt	-4%[6.58 µM]	1%	nt	-25%
C#CCOCCOCCOCCNc1nc(N2CCN(C(=O)CCCCCCCCCCNC(=O)[C@H](CCCCN)n3cc(C)nn3)CC2)nc(N2CCN(C(=O)CCCCCCCCCCNC(=O)[C@H](CO)n3cc(CCCSC)nn3)CC2)n1	nt	-5%	23%	nt	?
COc1ccccc1/C=C/C(=O)OCC(=O)NCc1ccc2c(c1)OCO2	nt	-7%	-17%	nt	6%
CCCn1nc(C(=O)NCC2COc3ccccc3O2)c2ccccc2c1=O (stereo not given)	nt	-8%	8%	nt	-24%
Cc1ccc(S(=O)(=O)N2[C@@H](c3ccc(Cl)cc3)C(C(=O)O)=CC[C@H]2c2ccc(C(C)C)cc2)cc1	nt	-6%	0%	nt	0%
CC(=O)c1ccccc1NC(=O)COC(=O)CN1C(=O)C2CCCCC2C1=O (stereo not given)	nt	-1%	-10%	nt	16%
CN(C(=O)COC(=O)Cc1c[nH]c2ccccc12)c1c(N)n(Cc2ccccc2)c(=O)[nH]c1=O	nt	12%	9%	nt	-12%
O=C(C[C@@H]1C/C=C\C[C@H](Cc2ccc(F)cc2)C(=O)OC[C@H]2CCCN2C1=O)NCCO	nt	1%	-19%	nt	-20%
CCN(CC)C(=O)OCc1c(-c2cccc(OC)c2)ncc2ccccc12	nt	0%	6%	nt	-23%
COc1ccccc1/C=C/C(=O)N1CCN(S(=O)(=O)c2cc(C)ccc2C)CC1	nt	3%	-13%	nt	-22%
CCN(CC)CC(=O)Nc1ccc(/C(C)=N/NC2=NCCN2)cc1	nt	2%	-4%	nt	-5%
CCc1ccc2nc(SCC(=O)Nc3nnc(C)s3)c(C)cc2c1	nt	-2%	-9%	nt	-4%
CC(C)c1ccccc1NC(=S)NC(=O)C1CCCCC1	nt	28%	4%	nt	?
CC(C)=CCC/C(C)=C/CNC(=O)CC1C[C@H](C(=O)N(C(C)C)C(C)C)[C@@]2(C)c3[nH]c4ccccc4c3CCN2C1=O (stereo not given in full)	nt	-4%	-7%	nt	0%
CCOc1ccc2c(c1)/C(=C(\C(Cl)=C(Cl)Cl)[N+](=O)[O-])N2	nt	-7%	7%	nt	0%
CC(C)NC(=O)N(C)C[C@H]1Oc2ccc(NC(=O)Nc3ccc(C(F)(F)F)cc3)cc2C(=O)N([C@H](C)CO)C[C@@H]1C	nt	-1%	2%	nt	-20%
CC(Sc1ncnc2c1cnn2-c1ccccc1)C(=O)Nc1ccc(N2CCOCC2)cc1 (stereo not given)	nt	5%	-10%	nt	8%
Cn1c(N)c(C(=O)COC(=O)c2ccccc2C(=O)c2ccccc2)c(=O)n(C)c1=O	nt	1%	7%	nt	2%
[O-][n+]1c2ccccc2c2n1CCCN=C2c1ccc(Cl)cc1	nt	3%	2%	nt	47%[activator]
COc1cc(OC)cc(-c2c(C#Cc3ccsc3)c3cc(-c4ccc5c(c4)OCCO5)ccc3n2C)c1	nt	0%	-2%	nt	1%
CCC1CCC2(CC1)NC(=O)N(CC(=O)NCc1ccc(Cl)cc1)C2=O (stereo not given)	nt	1%	-12%	nt	-18%
C[C@H]1CN([C@@H](C)CO)C(=O)c2cccc(NC(=O)C3CC3)c2O[C@H]1CN(C)S(=O)(=O)c1cccs1	nt	1%	2%	nt	15%
O=C(NCc1ccccc1CN1CCOCC1)c1ccc(-n2cccn2)cc1	nt	-6%	-12%	nt	-12%
CC(NC(=O)COC(=O)c1cccnc1Cl)C12CC3CC(CC(C3)C1)C2 (stereo not given)	nt	2%	8%	nt	-14%
CC1CC1C(=O)N1CCN(S(=O)(=O)c2cc(C(F)(F)F)cc(C(F)(F)F)c2)CC1 (stereo not given)	nt	-8%	0%	nt	-10%
O=C1NC2(CCCCC2)N(C(=O)c2ccccc2)C2=C1CCCC2	nt	-6%	-18%	nt	-13%
CC(C)Sc1nc2ccccc2[nH]1	nt	-4%	2%	nt	10%
CC(C(=O)Nc1ccc2[nH]c(=O)[nH]c2c1)N1CCN(Cc2ccc3c(c2)OCO3)CC1 (stereo not given)	nt	-9%	1%	nt	-9%
O=C1c2ccccc2C(=O)N1CCC#Cc1ccc2cc(CCCO)oc(=O)c2c1	nt	-2%	2%	nt	-15%
Cc1nn(-c2ccccc2)c2c1C(c1ccc(Br)s1)C(C#N)=C(N)O2 (stereo not given)	nt	-4%	18%	nt	22%
Cc1ccc(C)c(S(=O)(=O)N2CCN(CC(=O)NC(C)c3ccccc3)CC2)c1 (stereo not given)	nt	4%	-17%	nt	-23%

An excerpt, so the mix of outcomes need not match the whole.
